T cruzi repl: blocks replication of Trypanosoma cruzi; T. cruzi beta-gal in NIH3T3, luminescence, 90 h; inhibition, % (no concentration beside the values); actives 1.4% (n = 300,000); AID 1885;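 active = mean inhibition across valid replicates above about 55%, limit read from the data; inconclusive = mean below that limit but half or more replicates reach it; inactive = mean below it, under half of replicates reach it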;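 also: signal also drops with host cell toxicity which is not excluded here; 0% = plate median of DMSO wells and 100% = zero luminescence signal; higher percent means less beta-gal luminescence so fewer parasites; stock transfer was 50 nL into about 50 µL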
RanGTP-Impb inh: disruptors of Ran-importin-beta complex formation – biochemical, FRET, CFP-Ran, YFP-importin-beta, homogeneous, primary screen. cell-free CFP-Ran/YFP-importin-beta FRET ratio. inhibition, % (test concentration not listed). actives 1.1% (n = 300,000);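 active = most replicates above 15%; inconclusive = exactly half above 15%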;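 also: 0% = DMSO wells and 100% = Ran loaded with GDP instead of GTP; wells of about 40 µL received 100 nL stock; the first replicate is given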
AF4-AF9 inh: MLL-AF4/AF9 protein interaction inhibition; P42568; AlphaScreen, biotin-AF4 peptide binding to FLAG-AF9; inhibition, % at 10 µM; actives 0.47% (n = 350,000); AID 651704;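 active = every replicate reaching a set inhibition limit, whatever the replicate mean, cut at about 25% in these data; inconclusive = mean inhibition reaches that limit but some replicates miss it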;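 also: 0% = plate neutral control median and 100% = total signal loss; the record names both 10 and 1 µM as test concentration; the first replicate is given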
Target sequence (P42568 whole entry, looked up): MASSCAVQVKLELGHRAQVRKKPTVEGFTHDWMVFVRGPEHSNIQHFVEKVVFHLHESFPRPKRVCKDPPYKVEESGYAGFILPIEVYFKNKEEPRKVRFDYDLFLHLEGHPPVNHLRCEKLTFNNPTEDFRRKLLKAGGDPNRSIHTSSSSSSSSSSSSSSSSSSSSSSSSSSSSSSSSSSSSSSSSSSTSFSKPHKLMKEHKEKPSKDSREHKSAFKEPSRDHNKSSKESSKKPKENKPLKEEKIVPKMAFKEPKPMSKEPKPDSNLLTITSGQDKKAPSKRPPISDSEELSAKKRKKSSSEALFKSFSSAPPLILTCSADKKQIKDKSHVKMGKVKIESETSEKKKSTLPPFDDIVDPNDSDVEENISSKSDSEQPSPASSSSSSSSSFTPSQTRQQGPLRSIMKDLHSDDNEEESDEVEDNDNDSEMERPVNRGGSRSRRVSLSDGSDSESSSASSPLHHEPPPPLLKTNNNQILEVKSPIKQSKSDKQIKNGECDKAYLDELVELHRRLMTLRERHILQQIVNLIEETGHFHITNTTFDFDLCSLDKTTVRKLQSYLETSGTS
Beta cell apopt: blocks beta cell apoptosis; INS-1E cytokine-induced death, ATP luminescence, 48 h; percent of positive-control rescue, neutral wells zero; protection from apoptosis, % (no concentration beside the values); actives 0.8% (n = 300,000); AID 435005;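 active = all replicates at 75% or more, or half of them and the mean; inconclusive = half reach 75% but not the mean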;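 also: 0% = cytokine-treated negative control wells and 100% = positive control rescue; higher means more ATP so stronger rescue from cytokine killing; wells of about 40 µL received 100 nL stock; the first replicate is given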
LANA-H2A inh: blocks KSHV LANA binding to histone H2A/H2B; cell-free LANA-H2A/H2B peptide, fluorescence polarization; inhibition, % (concentration not given with the values); actives 0.6% (n = 320,000); Q9QR71; in the data active = inhibition mostly above about 10%, no sharp cut-off; inactive = mostly below about 6.7%;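 also: stock transfer was 7.5 nL into about 10 µL; 0% = median of vehicle wells and 100% = median of positive control wells; one replicate is shown; the record names a cut of 25% in any replicate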
Calb FLC: C. albicans growth modulation with fluconazole; actives 0.57% (n = 300,000); C. albicans CaCi-2 (fluconazole-resistant clinical isolate) + fluconazole, Alamar Blue growth, 48 h; growth inhibition, % (test concentration not listed); AID 1979;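 active = most replicates above 75%; inconclusive = exactly half above 75%; inactive = most below 75%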;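 also: all wells also contain fluconazole at 8 µg/ml as a sub-toxic cotreatment; 0% = median of DMSO wells and 100% = median of geldanamycin control wells; wells of about 8 µL received 7.5 nL stock; the first replicate is given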
A1 inh: inhibitors of the anti-apoptotic protein A1, read as caspase activation. AID 2462. caspase activation, % (no concentration beside the values). actives 0.066% (n = 330,000). MEF A1-2A-BIM cells, Caspase-Glo 3/7 luminescence, 3 h; percent of clofoctol response, vehicle zero;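 active = over half of replicate activation scores above 10%, or exactly half above 10 with the replicate mean above 10; inconclusive = replicate mean below 10 yet half the replicates above 10; inactive = over half of replicates below 10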;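 also: wells of about 30 µL received 50 nL stock; many hits fall short of the cut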
Vif TR-FRET: HIV-1 Vif–A3G interaction blockers – biochemical, TR-FRET, GST-Vif 1-94, biotin-A3G peptide, dose response retest, primary screen (AID 1117319); TR-FRET GST-Vif / biotin-A3G peptide binding; higher % means a stronger effect; test concentration not given here; strong numbers were not always called active; inhibition, %, or IC50 in µM where a hit was titrated; actives 0.57% (n = 260,000);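 active = above the screen mean plus three standard deviations and confirmed in dose response; inconclusive = results disagree or hit not tested in dose response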;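 also: Vif residues 1-94 fused to GST binding biotinylated APOBEC3G peptide 110-148; 0% = full assay without inhibitor and 100% = GST in place of GST-Vif; retest series ran down from 100 µM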
The depositor's hits bear a star; ? = inconclusive; . = not tested or not shown; & = joins results of further samples.

compound | Vif TR-FRET | Beta cell apopt | LANA-H2A inh | T cruzi repl | Calb FLC | AF4-AF9 inh | A1 inh | RanGTP-Impb inh
O=C(O)COc1ccccc1/C=N/n1c(C2CCCCC2)n[nH]c1=S | -10% | -4 | 5.5 | -8 | -7 | 2.1 | 0.1 | -4.0
CCOC(=O)c1c(NC(=O)c2cccs2)sc(CC)c1-c1cccs1 | ? | 11 | -1.3 | 33 | -9 | . | 0.0 | 0.4
O=c1n(Cc2ccc(F)cc2)nc2n1-c1ccccc1SC2 | -1% | 5 | -2.0 | 14 | -2 | -3.6 | -0.4 | 1.4
Cc1ccc(C)c(NC(=O)CN(C)C(=O)c2cc3c(s2)CCCCC3)c1 | -15% | . | 0.6 | 12 | -6 | -1.7 | -0.7 | 5.6
CCN(CC)c1ccc(C=C2C(=O)OC(c3ccccc3)OC2=O)cc1 (stereo not given) | -3% | 4 | 5.3 | -27 | -3 | -1.4 | -1.0 | -0.7
O=C(NNc1cccc(Cl)c1)c1cccnc1Oc1ccccc1 | -4% | -4 | -1.5 | 18 | -2 | -0.9 | 0.6 | -0.6
CC(C)(C)C1CCc2c(sc(NC(=O)c3cccs3)c2C(N)=O)C1 (stereo not given) | -2% | -1 | 1.1 | 8 | -8 | . | 1.1 | -1.9
COc1cc(/C=C/C(=O)OCC(=O)NCCN2C(=O)CSC2=O)ccc1OCC#N | -9% | 0 | -0.1 | . | . | -0.2 | -1.2 | .
O=C(CN1CCN(S(=O)(=O)c2ccc(Cl)c(Cl)c2)CC1)N1CCCCC1 | . | -2 | 0.6 | . | . | 0.6 | -1.4 | .
O=C(c1ccc(COc2ccccc2Cl)o1)N1CCN(c2ccccc2)CC1 | -3% | 3 | -3.4 | -6 | 9 | 1.7 | . | ?
COc1ccc2c(c1O)Cc1ccccc1C2=O | -1% | 0 | -12 | 4 | 8 | 2.8 | -1.7 | -2.4
Cn1c(SC2=CS(=O)(=O)c3ccccc32)nc2ccccc21 | 12% | 13 | -0.8 | 0 | 92* | . | 0.2 | 0.4
Cc1ccc(N2C(=O)c3ccccc3C(C)(C)C2=O)cc1 | . | -2 | 1.9 | -21 | -7 | 2.9 | -0.1 | 3.7
CC(C)(C)N1C(=O)c2ccccc2NC(=O)N1Cc1ccccc1 | 16% | -6 | 23 | -4 | -12 | . | -0.4 | -1.3
O=C(CCN1CCOCC1)Nc1c(-c2ccccc2)c2cc(Br)ccc2[nH]c1=O | 6%&-5% | -1 | -0.2 | -14 | -3 | . | -0.6 | 3.6
O=C(CCSc1ccccc1)Nc1nc2c(s1)CCCC2 | -3% | -7 | -0.4 | 11 | -33 | . | 0.2 | -9.1
O=C(COc1ccc(Cl)cc1)NCCNC(=O)c1ccccn1 | . | -1 | 1.9 | 0 | 7 | -0.7 | -0.2 | -0.9
CCc1nnc(NC(=O)CSc2nc(-c3ccc(OC)cc3)ns2)s1 | ? | -3 | 0.8 | 1 | -6 | . | -1.2 | -0.3
CS(=O)(=O)n1nc(OC(=O)c2cccc3ccccc23)cc1N | -7% | -8 | 2.9 | -24 | 1 | . | 0.4 | 2.1
C/C(=N/NC(=O)c1cc2ccccc2cc1O)C1C(=O)c2ccccc2C1=O | 10% | 6 | -4.5 | -13 | -1 | . | -4.3 | -2.8
CC(C)(C)c1ccc(S(=O)(=O)N2CCC(NC(=O)c3ccco3)CC2)cc1 | . | 4 | -2.2 | 1 | -5 | -1.0 | -0.2 | 0.4
Cc1oc2c(c1C(=O)NCCCC(=O)O)CCCC2 | 0% | -5 | 3.6 | -9 | -11 | . | 0.5 | 2.3
O=C(Nc1nnc(C2CC2)o1)c1ccc(S(=O)(=O)N2CCc3ccccc3C2)cc1 | -17% | -2 | 1.2 | -21 | 62 | . | 0.3 | 2.2
ClCc1nc2ccccc2n1Cc1ccccc1 | 5% | -11 | 15 | 45 | 35 | -3.5 | 0.2 | 1.8
O=C(CCCC(=O)OCC(=O)c1ccc(F)cc1)Nc1cc(C(F)(F)F)ccc1Cl | 8% | 0 | -3.5 | -32 | -31 | . | -0.3 | 3.6
c1ccc2cc3[nH]c(CN4CCCCC4)nc3cc2c1 | 0% | -4 | 1.4 | -2 | -4 | -1.0 | 0.7 | 2.1
COc1ccc(CCNc2oc(-c3ccccc3OC)nc2C#N)cc1 | -3% | -3 | 3.7 | -2 | -1 | . | -0.7 | -3.4
NC(=S)Nc1ncc(CCN2CCOCC2)c(-c2ccc(F)cc2)n1 | -9% | 0 | 1.5 | -3 | 33 | -1.8 | -0.3 | -4.0
Cc1ccc(NC(=O)CN2C(=O)C3C4C=CC(C4)C3C2=O)cc1S(=O)(=O)N(C)C (stereo not given) | ? | . | -2.2 | -7 | 3 | 0.3 | 1.9 | 0.0
CCN(CC)S(=O)(=O)c1ccc(N2CCN(c3cccc(OC)c3)CC2)c([N+](=O)[O-])c1 | -4% | 29 | -5.8 | 65* | 9 | . | 0.7 | 3.5

Structures shown so far that contain a cyano group:
compound | Vif TR-FRET | Beta cell apopt | LANA-H2A inh | T cruzi repl | Calb FLC | AF4-AF9 inh | A1 inh | RanGTP-Impb inh
COc1cc(/C=C/C(=O)OCC(=O)NCCN2C(=O)CSC2=O)ccc1OCC#N | -9% | 0 | -0.1 | . | . | -0.2 | -1.2 | .
COc1ccc(CCNc2oc(-c3ccccc3OC)nc2C#N)cc1 | -3% | -3 | 3.7 | -2 | -1 | . | -0.7 | -3.4

(next part)
compound | Vif TR-FRET | Beta cell apopt | LANA-H2A inh | T cruzi repl | Calb FLC | AF4-AF9 inh | A1 inh | RanGTP-Impb inh
CCCCCCC(=O)N1CCN(c2cc3c(cc2F)c(=O)c(C(=O)O)cn3CC)CC1 | -3% | 1 | 4.8 | -4 | -5 | . | -0.3 | 5.5
COc1cc(C2Nc3ccccc3C(=O)N2c2ccccc2)c(Br)cc1OCC(=O)O (stereo not given) | 12% | -6 | 2.9 | -10 | -1 | . | 0.7 | 5.5
Cc1ccc(-n2c(SCC(=O)Nc3ccc4c5c(cccc35)CC4)nc(O)c(C)c2=O)cc1 | 6% | 0 | -0.8 | -3 | -3 | 2.7 | 2.0 | -0.2
CN1CCCN(c2ccc([N+](=O)[O-])cc2)CC1 | . | -3 | 4.2 | 33 | 4 | 28* | 0.4 | 2.9
CC1(OC(=O)CCc2ccccc2)C(=O)C=C2C=C(c3ccsc3)OC=C2C1=O (stereo not given) | 4.7µM* | 0 | 3.2 | -21 | -10 | . | -0.8 | -11
O=C(c1ccc(F)cc1F)N1CCN(c2n[nH]c(=O)[nH]c2=O)CC1 | 11% | 0 | 1.7 | -6 | -1 | -5.3 | 0.0 | 3.3
CCOC(=O)N1CCN(c2c(N3CCN(c4cc(C)ccc4C)CC3)c(=O)c2=O)CC1 | -2% | . | 1.5 | 12 | 5 | -6.9 | 0.1 | -0.3
CN(C)C(CNC(=O)c1cccc(S(=O)(=O)Nc2ccc(Br)cc2)c1)c1ccco1 (stereo not given) | 3% | 2 | . | 20 | -14 | 1.4 | -0.9 | -0.1
CC(NC(=O)CCl)c1ccccc1Br (stereo not given) | . | -20 | -2.7 | 33 | -16 | 2.0 | 0.9 | 4.5
O=C(Nc1nccs1)C1CCCN(S(=O)(=O)c2cccc3cccnc23)C1 (stereo not given) | 69% | -9 | 1.2 | 5 | -7 | -1.2 | -0.3 | -3.9
COCCNC(=O)NC(=O)CN1CCCc2ccccc21 | . | -4 | 16* | -3 | -2 | 3.8 | 1.5 | .
COc1ccc(-n2nc(C(=O)NCC(=O)NCc3ccc(F)cc3)c3ccccc3c2=O)cc1 | . | 9 | 2.9 | 6 | 5 | -2.1 | -0.1 | 2.7
CCOC(=O)c1cccc(NC(=O)/C=C/c2ccc3c(c2)OCO3)c1 | 1% | 3 | -0.8 | 10 | 2 | . | 0.5 | -3.1
CC(C)OC(=O)CCC(=O)Nc1ccc(F)cc1 | 11% | -5 | -5.5 | -6 | 2 | -11 | -0.8 | -4.6
COc1ccc(CCNC(=O)C2Cc3ccccc3C(=O)O2)cc1 (stereo not given) | 0% | -5 | 1.6 | -7 | 4 | -1.9 | 0.5 | -2.8
C=C(C)CN(CC)CCC(=O)Nc1ccc(OC)cc1OC | 3% | -5 | -1.7 | -15 | 10 | . | 0.1 | 1.5
CCN(C1CCCCC1)S(=O)(=O)c1ccc(S(=O)(=O)NCc2ccncc2)cc1 | -5%&-10% | 103* | 1.2 | -36 | -9 | . | -0.8 | -7.3
C/C(=N\O)c1ccc(Cl)c(Cl)c1 | -3% | 2 | 6.9 | -11 | -1 | . | -1.2 | ?
C#Cc1ccc([C@@H]2C=C(C(=O)NCc3nc4ccccc4[nH]3)O[C@H](OCC)[C@H]2CCCO)cc1 | -3% | 1 | 2.4 | 17 | 3 | -7.7&-12 | 1.5 | 6.4
Cc1c(C(=O)NCc2ccc(S(N)(=O)=O)cc2)oc2ccc(Cl)cc12 | 3% | -2 | -0.2 | 1 | 11 | -2.5 | -0.2 | ?
CCOC(=O)c1ncccc1NC(=O)CC(=O)Nc1cccnc1C(=O)OCC | . | -3 | -5.0 | -5 | -6 | -0.7 | 0.1 | 11
COc1ccc(C2C(C(=O)Nc3cc(C)on3)c3ccccc3C(=O)N2C)cc1 (stereo not given) | -2% | . | -1.8 | -4 | 3 | . | 0.0 | 2.6
Cc1cc(C)c2oc(C(=O)N(Cc3ccccc3)C3CCS(=O)(=O)C3)cc(=O)c2c1 (stereo not given) | -4% | 7 | 1.2 | -15 | 11 | . | -0.7 | -1.0
CCOC(=O)c1sc2cccc(F)c2c1N | 31% | 1 | -0.5 | 0 | -24 | 0.7 | -1.2 | -6.0
COc1ccc(NC(=O)CCNS(=O)(=O)c2ccc3c(c2)c(=O)n(C)c(=O)n3C)cc1OC | -7% | 2 | 3.4 | -11 | -19 | -0.6 | -0.4 | -3.8
COc1ccc(-n2nc3c(c2NC(=O)CCl)CSC3)cc1 | . | -13 | 3.6 | -8 | 17 | 1.1 | -0.8 | 2.6
COc1cc(Br)c(CCNC(=O)c2ccco2)cc1OC | 1% | 5 | 0.2 | -5 | 26 | -1.2 | 0.2 | ?
COc1cc(-c2nnc(-c3ccc(N4CCOCC4)cc3)o2)cc(OC)c1OC | -4% | 1 | -2.4 | -1 | 16 | . | -0.3 | ?
OCCN1CCN(CC#CCn2c3ccccc3c3ccccc32)CC1 | ? | -2 | 0.2 | 6 | -2 | . | -1.0 | 1.8
COCCN(CCOC)S(=O)(=O)c1ccc(C(=O)NC2CCN(Cc3ccccc3)CC2)cc1 | -9% | -1 | -3.1 | 50 | 5 | . | 0.0 | 2.8
